# Screening data (PubChem)
# Insulin prom inh: TRM-6 insulin promoter activity inhibition. actives 0.9% (n = 130,000). TRM-6 cells (human fetal islet line), insulin promoter-eGFP reporter, imaging; reporter expression induced with tamoxifen. inhibition, % at 2 µM;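 active = inhibition above the mean plus 3 SD, with well images judged a real hit on visual review, cut at about 60% in these data, passing the limit was not always enough; inconclusive = inhibition over the cutoff but images rejected on review; inactive = inhibition not above the cutoff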
# GALR2 agonist: activates the human galanin receptor 2; O43603; GALR2-expressing cells, agonist activation read-out; activation, %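 (tested at 5 µM)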; actives 0.48% (n = 140,000); AID 803;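 active = above mean plus 3 SD of all compounds, about 5% in these data, not always enough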;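 note: 0% = vehicle buffer wells and 100% = reference agonist at full effect; tested in CHO reporter cells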
# Target sequence (O43603 whole entry, looked up): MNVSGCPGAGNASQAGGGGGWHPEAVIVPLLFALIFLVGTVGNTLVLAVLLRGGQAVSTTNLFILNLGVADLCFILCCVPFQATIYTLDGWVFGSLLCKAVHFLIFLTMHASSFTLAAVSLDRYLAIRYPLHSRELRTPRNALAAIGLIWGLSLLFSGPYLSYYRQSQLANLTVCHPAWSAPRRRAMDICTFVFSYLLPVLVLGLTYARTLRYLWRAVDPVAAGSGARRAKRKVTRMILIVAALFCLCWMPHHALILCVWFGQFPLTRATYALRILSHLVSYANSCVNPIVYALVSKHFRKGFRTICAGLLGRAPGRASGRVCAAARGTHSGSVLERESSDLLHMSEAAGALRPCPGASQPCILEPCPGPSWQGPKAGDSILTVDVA
# PKD1 kinase inh: PKD1 (human) kinase inhibition | Q15139 | PKD1 kinase fluorescence polarization assay | inhibition, %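 (about 10 µM by stock and volumes)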 | actives 0.056% (n = 200,000) | AID 797;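 active = inhibition of 50% or more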;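 note: controls were vehicle for no effect and a reference inhibitor for full effect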
# RGS16-Gao: modulates binding between human RGS16 and Galphao; binding response (% of control), % at 10 µM; bead-based flow cytometry RGS16-Galphao binding, fluorescence; actives lie on both sides; actives 0.38% (n = 220,000); O15492+P09471;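 active = below 25% or above 175%, edge rows of some plates excepted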;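 note: Galphao activated by GDP with aluminum fluoride before binding; 100% = wells without compound and 0% = beads without RGS; some results beyond the cut were filed as inactive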
# Target sequence (O15492 whole entry, looked up): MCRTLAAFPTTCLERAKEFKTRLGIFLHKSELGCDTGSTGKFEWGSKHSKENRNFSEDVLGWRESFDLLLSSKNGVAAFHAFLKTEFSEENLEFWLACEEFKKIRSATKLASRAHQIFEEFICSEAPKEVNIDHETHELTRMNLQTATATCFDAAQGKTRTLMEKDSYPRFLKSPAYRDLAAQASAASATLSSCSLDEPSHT
# Target sequence (P09471 whole entry, looked up): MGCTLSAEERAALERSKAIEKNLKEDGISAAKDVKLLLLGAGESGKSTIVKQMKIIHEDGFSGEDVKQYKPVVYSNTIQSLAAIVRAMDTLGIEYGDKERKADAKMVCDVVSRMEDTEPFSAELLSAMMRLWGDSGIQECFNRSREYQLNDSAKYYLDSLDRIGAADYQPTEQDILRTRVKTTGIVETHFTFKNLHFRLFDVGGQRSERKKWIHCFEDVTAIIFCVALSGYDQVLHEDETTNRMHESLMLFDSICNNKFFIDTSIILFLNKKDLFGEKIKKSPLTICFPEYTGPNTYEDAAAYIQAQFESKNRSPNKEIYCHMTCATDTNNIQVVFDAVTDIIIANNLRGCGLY
# HSV augment: HSV replication enhancement | HSV replication augmentation in cells, fold increase | maximum fold increase | actives 0.005% (n = 220,000);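 active = peak rise of 1.5-fold or more in the series; inconclusive = self-fluorescent or not available for retest; tested in PC3 cells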;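 note: first round at 10 µM; read as green reporter fluorescence; hits show the peak of a series up to 25 µM; 1 = signal of infected wells without compound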
# Insulin prom inh cell count: second read-out of Insulin prom inh, no call of its own (marks repeat the call); normalized cell count, %; measured here: cell count, toxicity; reference of the scale not given here;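 cells exposed to compound for 48 h; stained nuclei by imaging scaled within each plate; lower means fewer cells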
# HSV augment primary fold: second read-out of HSV augment, no call of its own (marks repeat the call); fold increase; compound at 10 µM; measured here: primary screen fold increase 10 uM; tested in PC3 cells;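 GFP signal in the first replicate; 1 = infected wells without compound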
# An asterisk follows results filed as active; i = inactive; ? = inconclusive; · = no result given.
SMILES	Insulin prom inh cell count	GALR2 agonist	HSV augment primary fold	RGS16-Gao	PKD1 kinase inh	HSV augment	Insulin prom inh
CC(=O)Oc1ccc(N(C(C)=O)S(=O)(=O)c2ccc(C)c([N+](=O)[O-])c2)cc1	58	-1.5	0.95	55	-1	i	-41
Clc1ccc(CN2C3=NCCCN3c3ccccc32)cc1	148	-1.0	·	107	21	·	-136
Cc1cc(C)nc(S/C=C/C(=O)c2ccccc2)n1	·	·	0.66	92	·	i	·
Cc1cc(C)c(NC(=S)N(CCN(C)C)Cc2cccs2)c(C)c1	164	·	0.95	97	6	i	20
COc1ccc(C(=O)N2CCN(C(=O)CC(C)C)CC2)cc1OC	115	-3.2	1.1	104	0	i	13
Cc1oc2c(C)c3oc(=O)c4c(c3cc2c1C)CCCC4	86	-1.3	0.91	101	-1	i	29
CC(=O)N=c1sccn1CC(=O)c1ccc([N+](=O)[O-])cc1	·	-3.0	1.1	90	6	i	·
Fc1ccc(CN2CCCN(C(=S)Nc3ccc(F)cc3)CC2)cc1	·	·	0.88	107	·	i	·
O=C(C1=C[C@@H](c2csc3ccccc23)C[C@@H](OCc2ccc(CO)cc2)O1)N1CCN(Cc2ccccc2)CC1	·	·	0.71	108	5	i	·
CCOC(=O)c1c(C)n(CC(COC(C)=O)OC(C)=O)c2ccc(OC(C)=O)cc12 (stereo unspecified)	·	0.2	0.94	104	3	i	·
Fc1ccc(Br)cc1C1C=C(c2cccnc2)Nc2ncnn21 (stereo unspecified)	·	-1.9	1.2	99	12	i	·
COc1ccc(OCC(O)CNC(=O)c2c(-c3ccccc3)noc2C)cc1 (stereo unspecified)	·	·	0.92	95	·	i	·
Cc1nnc(SCc2nnc(-c3ccccc3)o2)n(N)c1=O	80	-1.7	0.98	104	-9	i	-39
CN1C(=O)c2oc3ccccc3c(=O)c2C1c1ccccn1 (stereo unspecified)	56	-1.7	1	103	-1	i	22
Cc1ccc(CSc2nnc(SCC(=O)N/N=C/c3c(C)nn(-c4ccccc4)c3C)s2)cc1	88	-1.3	0.86	100	-4	i	33
CCn1c(N2CCN(C(=S)NCC(C)C)CC2)nc2ccccc21	108	-3.6	0.61	100	-7	i	-3
COc1ccc(NC(=O)CCCSc2nc(-c3ccco3)cc(C(F)(F)F)n2)cc1OC	149	-0.5	0.92	112	3	i	2
Cc1cc(=O)n(CNC(=O)c2ccccc2)c(=S)[nH]1	111	0.8	0.99	107	1	i	-12
COc1ccc(Cn2c(O)cc(=O)[nH]c2=O)cc1	127	-1.4	1.1	104	-7	i	60
CCn1c(Cn2nnc(-c3ccccc3)n2)nnc1SCC(=O)Nc1ccccc1	·	-0.7	0.98	99	-2	i	·
CCOC(=O)c1cc(C)nc(N2CCCCC2)c1C#N	·	·	0.98	99	·	i	·
COc1ccc(N2CC(C)Cn3c2nc2c3c(=O)n(CCN3CCOCC3)c(=O)n2C)cc1 (stereo unspecified)	·	-1.9	1	184	-1	i	·
O=S(=O)(NCc1csc(-c2cccnc2)n1)c1ccc2c(c1)OCCO2	130	-2.7	0.97	92	-19	i	-14
COc1ccc(C2CC(=O)C=C(NCc3ccc4c(c3)OCO4)C2)cc1 (stereo unspecified)	·	·	1	103	·	i	·
FC(F)(F)c1nnc2ccc(NCc3cccnc3)nn12	78	·	0.95	101	-11	i	50
COc1ccc(C(C#N)N2CCCCCC2)cc1OC (stereo unspecified)	·	-1.9	1	115	-18	i	·
Cc1noc(C)c1CSc1nc2ccccc2[nH]1	188	-0.2	0.96	93	-4	i	-10
Cc1cnc(C(=O)OCC(=O)NC2CCCCCC2)cn1	134	·	0.9	100	0	i	42
O=C(NCCOc1ccccc1)C(=O)c1c[nH]c2ccccc12	·	·	1	97	·	i	·
CCC(C)NC(=O)c1c(N)n(/N=C/c2cccnc2)c2nc3ccccc3nc12 (stereo unspecified)	166	-0.9	0.6	102	2	i	-8
N#C/C(=C\c1cccc(Cl)c1)C(=O)c1ccccc1	·	·	0.91	86	·	i	·
Cc1ccc(Cn2ccc(NC(=O)c3cc(C)on3)n2)cc1	·	-1.4	0.9	98	-2	i	·
CCN(CC)c1ccc(NC(=O)C(C)C)cc1	·	-1.6	0.94	101	-7	i	·
O=C(CCCN1C(=O)C2CCCCN2C1=O)N1CCN(c2ccc([N+](=O)[O-])cc2)CC1 (stereo unspecified)	·	-0.1	0.84	102	-5	i	·
COc1ccc(C(CC(=O)N2CCCCC2)c2c(O)cc(OC)cc2OC)cc1 (stereo unspecified)	·	·	0.8	109	·	i	·
Cc1ccc(CSCc2ccc(C(=O)NCCCN3CCOCC3)o2)cc1	118	·	1	94	-2	i	-73
COc1cc(C2CC(=O)N3CN(Cc4ccco4)CSC3=C2C#N)ccc1OCc1ccccc1 (stereo unspecified)	·	-1.6	0.93	91	-4	i	·
CC1CCCCC1NC(=O)CSc1nnnn1-c1ccccc1 (stereo unspecified)	118	-0.6	0.97	100	-3	i	19
CC(=O)NS(=O)(=O)c1ccc(NC(=O)/C=C/c2cn(-c3ccccc3)nc2-c2ccccc2)cc1	·	-1.0	1	97	6	i	·
O=C(Cn1c(=O)[nH]c2ccsc2c1=O)NC1CCCCCC1	144	1.0	0.87	101	-3	i	-3
CC(C)n1c(C(O)c2ccccc2)nc2ccccc21 (stereo unspecified)	120	-3.0	0.88	115	-1	i	0
CCOC(=O)C1CCN(Cc2ccc(Cl)c(Cl)c2)CC1	93	-0.3	0.95	99	-3	i	-3
CCNC(=S)NNC(=O)c1ccccn1	85	-1.3	0.92	73	4	i	36
C=CCN(c1ccccc1C(=O)O)S(=O)(=O)c1ccc(NC(=O)OC)cc1	·	·	1.1	101	·	i	·
CCOc1ccc(/C(O)=C2/C(=O)C(=O)N(CCOCCO)C2c2ccccn2)cc1 (stereo unspecified)	97	-1.4	1.1	99	-5	i	14
CCCOCn1cc(F)c(=O)[nH]c1=O	94	-0.6	0.94	101	-3	i	3
O=c1[nH]c(C(F)(F)F)nc2ccccc12	96	-4.5	0.88	103	-12	i	23
CCOC(=O)c1c(-c2ccc(C)cc2)cn2ccccc12	107	-1.8	1	103	-20	i	33
O=C(N/N=C/c1ccc(Br)s1)c1c[nH]c2ccccc12	·	-1.3	0.76	86	-3	i	·
O=C(CSc1nnc(Cc2ccccc2)o1)N1CCOCC1	118	-0.8	0.93	101	-6	i	9
O=C(NCc1ccc2c(c1)OCO2)C1CC(c2ccccc2O)=NO1 (stereo unspecified)	125	-1.9	1.4	108	-6	i	-16
COc1ccc(-c2ccc(-c3noc(-c4cccs4)n3)c(OC)n2)cc1	193	-0.3	0.88	99	1	i	-58
CC1=C(C(=O)OC(C)C)C(c2cn(-c3ccccc3)nc2-c2cccs2)NC(=O)N1 (stereo unspecified)	97	-0.5	0.9	77	-11	i	7
COc1ccc2oc(=Nc3ccccc3)c(-c3nc4ccccc4[nH]3)cc2c1	·	0.1	1.1	94	-8	i	·
O=C(NCc1ccncc1)c1cc(C(=O)C2CC2)c[nH]1	74	·	1.1	99	-4	i	-7
O=S(=O)(c1ccc(NC(=S)NC2CCCC2)cc1)N1CCCC1	128	·	0.94	95	6	i	7
COc1ccc(NC(=O)CSc2nnc(CCC(=O)O)c(=O)n2N)cc1	107	·	0.94	103	8	i	7
CCOC(=O)N1CCN(CC(O)c2ccc3cc[nH]c3c2)CC1 (stereo unspecified)	·	-2.3	0.9	96	-12	i	·
O=C(COC(=O)c1ccncc1)Nc1cc(Cl)c(Cl)cc1Cl	102	-3.0	·	102	-4	·	39
CCCN1Cc2cccc(C(=O)Nc3ccc4c(c3)OCCO4)c2C1=O	·	-0.4	0.71	107	1	i	·

# Ordered by SMILES length (largest number first): some entries from above
SMILES	Insulin prom inh cell count	GALR2 agonist	HSV augment primary fold	RGS16-Gao	PKD1 kinase inh	HSV augment	Insulin prom inh
Cc1ccc(Cn2ccc(NC(=O)c3cc(C)on3)n2)cc1	·	-1.4	0.9	98	-2	i	·
CCOC(=O)c1c(-c2ccc(C)cc2)cn2ccccc12	107	-1.8	1	103	-20	i	33
CC(C)n1c(C(O)c2ccccc2)nc2ccccc21 (stereo unspecified)	120	-3.0	0.88	115	-1	i	0
CCNC(=S)NNC(=O)c1ccccn1	85	-1.3	0.92	73	4	i	36

# Other entries follow.
SMILES	Insulin prom inh cell count	GALR2 agonist	HSV augment primary fold	RGS16-Gao	PKD1 kinase inh	HSV augment	Insulin prom inh
c1ccc(-c2oc3ncnc(N4CCOCC4)c3c2-c2ccccc2)cc1	112	-2.2	0.9	102	-7	i	-18
CCCOc1ccccc1C1CC(=O)Nc2cc3c(cc21)OCCO3 (stereo unspecified)	34	4.8	·	106	-8	·	-72
COc1ccc2cc(S(=O)(=O)N3CCCCC3)ccc2c1S(=O)(=O)N1CCCCC1	132	-1.7	0.85	111	-5	i	-262
CC1CCCCC1NC(=O)CSc1nnc(CN2CCOCC2)n1C (stereo unspecified)	120	-0.5	0.68	96	2	i	6
COC(=O)c1c(C(=O)OC)c2cc(C)ccn2c1Cl	99	-2.7	0.91	100	-5	i	-35
Nc1nn2cc(-c3ccc(Br)cc3)nc2c2ccccc12	·	·	0.87	101	·	i	·
CC(C)(C)CN1C(N)=NC[C@@H]1Cc1ccc(O)cc1	·	·	0.87	100	·	i	·
CC(C)C(C)(C#N)NC(=O)CSc1nc2scc(-c3ccccc3)c2c(=O)[nH]1 (stereo unspecified)	98	-1.5	1	109	-3	i	23
CN(C)S(=O)(=O)c1ccc(NC(=S)NC(=O)Cc2ccccc2)cc1	96	·	0.98	103	0	i	6
CCCCC1=CC2=CC(=O)C(C)(OC(=O)CC)C(=O)C2=CN1Cc1ccccc1 (stereo unspecified)	·	·	0.85	105	·	i	·
COCCOC(=O)C1=C(C)N=C2SCCC(=O)N2C1/C=C/c1ccccc1 (stereo unspecified)	96	-3.1	0.87	115	-4	i	9
Cc1cc2nc(C)c3c(n2n1)CCC3	·	·	0.98	102	-1	i	·
CCOC(=O)c1n[nH]c(=O)c2ccccc12	·	·	0.99	92	7	i	·
COC(=O)N/N=C/c1cn(CCOc2ccccc2)c2ccccc12	·	·	0.96	101	·	i	·
O=c1c2c3c(sc2nc2sc(CN4CCCCC4)cn12)CCCC3	71	1.4	·	106	-12	·	-164
CN(C)CCCN1C(=O)C(=O)/C(=C(/O)c2ccncc2)C1c1cccnc1 (stereo unspecified)	95	-1.4	0.97	82	-11	i	12
C=CCn1c2ccccc2c2nnc(SCN3C(=O)c4ccccc4C3=O)nc21	·	0.2	0.68	95	-11	i	·
CNS(=O)(=O)c1cccc(C(=O)OCC(=O)N(Cc2ccccc2)C(C)(C)C)c1	·	·	1.1	100	-2	i	·
Cc1oc(C)c2c(=O)ccc3c(c12)OC(N)=C(C#N)C3c1ccccc1Cl (stereo unspecified)	·	0.4	·	101	-22	?	·
COc1ccccc1-n1c(SCC(N)=O)nnc1-c1ccc(S(=O)(=O)N2CCCCC2)cc1	116	1.3	0.94	97	-3	i	18
CCOC(=O)Cc1cc(=O)[nH]c(/N=C(/NC(=O)c2ccccc2)Nc2ccccc2C(F)(F)F)n1	126	-1.1	1.1	98	-6	i	38
CCn1cc(C(=O)NCCCN2CC(C)CC(C)C2)c(=O)c2cc(S(=O)(=O)N(C)C)ccc21 (stereo unspecified)	·	-2.8	0.98	96	-8	i	·
COc1ccc(-n2nc(C(=O)NCC(=O)Nc3ccccn3)c3ccccc3c2=O)cc1Cl	23	-0.2	·	161	16	·	-61
O=c1c(-c2ccc(Br)cc2)[n+]([O-])c2ccccc2n1OCc1ccccn1	·	·	0.94	99	-7	i	·
C/C(CC(C)C)=N\Oc1nc(C)cc(C)n1	·	·	0.9	108	·	i	·
O=[N+]([O-])c1ccc(N/N=C/c2cccc(O)c2O)c(S(=O)(=O)N2CCOCC2)c1	·	·	0.79	97	-1	i	·
O=c1c2c(nc3n1CCCCC3)sc1c(O)cccc12	106	-2.0	1.1	94	17	i	-33
CCCCCSc1nnc(-c2ccccc2N)c(=O)[nH]1	105	-1.6	0.93	109	-5	i	-7
CCOc1ccc(NC(=O)CCN2CCN(c3ccccc3OC)CC2)cc1	·	-0.7	0.96	104	-1	i	·
